FLuc inh – firefly luciferase inhibition; P08659; purified firefly luciferase, luminescence, 8 min; Potency, µM (top dose mostly 57.1 µM), for the others: at the highest dose activity change, negative = inhibition, hits mostly inhibitors; hit rate 2.2% among 72,000; AID 411; note: potency is the fitted concentration of half-maximal effect; % is set by controls: 0 for no effect and ±100 for the full control effect; nearly all actives have a fitted effect of over 40% in size
Target sequence (P08659 whole entry, looked up): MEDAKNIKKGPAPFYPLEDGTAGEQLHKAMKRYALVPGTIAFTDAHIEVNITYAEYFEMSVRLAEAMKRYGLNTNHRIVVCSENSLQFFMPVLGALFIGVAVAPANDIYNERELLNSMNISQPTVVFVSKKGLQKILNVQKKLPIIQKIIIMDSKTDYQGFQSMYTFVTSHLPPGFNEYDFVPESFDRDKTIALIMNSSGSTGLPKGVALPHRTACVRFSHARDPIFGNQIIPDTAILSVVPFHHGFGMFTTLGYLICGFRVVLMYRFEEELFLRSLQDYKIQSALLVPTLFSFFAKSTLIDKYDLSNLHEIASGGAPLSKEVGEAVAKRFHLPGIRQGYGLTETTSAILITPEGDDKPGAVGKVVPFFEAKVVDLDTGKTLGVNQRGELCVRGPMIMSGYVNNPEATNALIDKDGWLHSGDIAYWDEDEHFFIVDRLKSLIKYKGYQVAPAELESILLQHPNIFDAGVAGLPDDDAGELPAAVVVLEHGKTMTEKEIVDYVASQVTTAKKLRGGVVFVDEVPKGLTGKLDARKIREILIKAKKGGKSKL
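Luminescence read-out after 8 min at room temperature; enzyme reaction used luciferin plus 10 uM ATP (linear range) in imidazole buffer pH 7.2 with KCl, MgCl2, Tween 20 and BSA. Each sample was run as a titration.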
Fluorescein autfl – compound fluoresces in the fluorescein spectral region | max fluorescein-equivalent concentration, M | Compound autofluorescence, 480/540 nm, fluorescein-equivalent; hits give high values | hit rate 0.91% among 59,000; in the data active = max fluorescein-equivalent concentration above about 10 nM; inconclusive = between about 1.1 nM and that limit
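Normalized response (dye-equivalent concentration) derives from comparing each well's 540 nm emission, under 480 nm excitation, with plate-resident fluorescein standards. Compounds were held in 100 mM Tris, pH 8.0, for 15 min at room temperature.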
USP2a inh – blocks human ubiquitin-specific protease USP2a. O75604. USP2a enzymatic assay, qHTS inhibition. Potency, µM (highest dose often 38.3 µM), for inactives: at the highest dose activity change, negative = inhibition, hits mostly inhibitors. hit rate 0.1% among 60,000. AID 927;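 note: potency is the fitted concentration of half-maximal effect; nearly all actives have a fitted effect of over 60% in size; plate controls were DMSO for no effect and NEM full inhibition control for full effect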
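20 nM USP2 core + cpd, 30 min RT; add 20 nM Ub-PLA2/20 uM NBD C6-HPC; read Ex460/Em535 at 0 h and 2.5 h. Normalized to NEM; qHTS curve fit/classification.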
TexasRed autofl – compounds fluorescent in Texas Red spectral region. max dye-equivalent concentration, M. AID 587. Compound fluorescence, Texas Red channel, 547/618 nm; hits give high values. hit rate 0.06% among 59,000; in the data active = max dye-equivalent concentration above about 10 nM; inconclusive = between about 1.1 nM and that limit
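Compound fluorescence was read after 15 min at room temperature in 100 mM Tris, pH 8.0, using 547 nm excitation and 618 nm emission across a concentration series. It was expressed as Texas Red dye-equivalent concentration from an on-plate standard curve.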
HEK293 cAMP ctrl – counter-screen for TSHR agonists: cAMP increase in parental HEK293; parental HEK293 CNG cAMP sensor, membrane potential fluorescence; Potency, µM (highest dose often 57.1 µM), without a hit: at the highest dose activation, most hits filed as activators; hit rate 2.5% among 73,000; note: potency is the fitted concentration of half-maximal effect; % of control where 0% means no effect; nearly all actives have a fitted effect of over 55% in size
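Parental HEK 293 cells stably expressing a modified CNG channel (no TSHR) report cAMP rise as membrane depolarization. Membrane potential dye with 100 uM RO 20-1724 was loaded for 60 min at room temperature, then compound added for 30 min; fluorescence read at 590 nm.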
Rhodamine fluor – compound fluoresces in the rhodamine spectral region. hit rate 0.05% among 59,000. AID 594. Rhodamine-region fluorescence, 547/598 nm, Tris buffer; hits give high values. max dye-equivalent concentration, M; in the data active = max dye-equivalent concentration above about 11 nM; inconclusive = between about 1.1 nM and that limit
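Read-out is relative fluorescence at 547 nm excitation and 598 nm emission, expressed as dye-equivalent concentration using rhodamine standards on every plate. Each compound was profiled across a concentration series after 15 min in 100 mM Tris, pH 8.0.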
HADH2 inh – inhibitors of human HADH2 dehydrogenase; recombinant HADH2, NADH fluorescence, beta-hydroxybutyryl-CoA; hit rate 3.4% among 73,000; Q99714; Potency, µM (top dose mostly 57.1 µM), for inactives: top-dose activity change, negative = inhibition, hits mostly inhibitors; note: potency is the fitted concentration of half-maximal effect; % is set by controls: 0 for no effect and ±100 for the full control effect; nearly all actives have a fitted effect of over 60% in size; many of its hits are not listed in these tables
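20 nM HADH2 + cpd, 15 min RT; add 1 mM NAD+/90 uM beta-hydroxybutyryl-CoA; kinetic fluorescence 360/450 nm, 4 min. Tris-HCl pH 9.0, 0.01% Tween-20.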
Tau fil binding – tau filament binding; P10636; recombinant tau filaments, thioflavin S fluorescence, 15 h; filaments grown with octadecylsulfate alongside compound; Potency, µM (series often up to 57.1 µM), for inactives: at the top dose activity change, negative = inhibition; hit rate 2% among 71,000;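 note: potency is the fitted concentration of half-maximal effect; % is set by controls: 0 for no effect and ±100 for the full control effect; actives lower thioflavin S fluorescence by blocking filaments or displacing dye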
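His-tagged recombinant human tau (exons 2, 3 and 10 included), 1 uM, was induced to fibrillize by 30 uM sodium octadecylsulfate with compound present. After 15 h at 37 C, thioflavine S fluorescence (ex 450, em 510 nm) was read.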
ERK AVP block – inhibitors of vasopressin-stimulated ERK signaling pathway. HEK293-V1b, vasopressin-stimulated pERK AlphaScreen. Potency, µM (doses to about 57.5 µM), for inactives: at the top dose activity, negative = inhibition, actives largely listed as inhibitors. hit rate 0.99% among 72,000; note: potency is the fitted concentration of half-maximal effect; % is set by controls: 0 for no effect and ±100 for the full control effect; nearly all actives have a fitted effect of over 55% in size
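qHTS, compounds titrated on V1b-expressing HEK293 cells. Preincubation 30 min at 37C, vasopressin 25 nM for 5 min, lysis 10 min, bead incubation 5 hr at room temperature.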
* marks the source's active call; other numbers are inactive results; i = inactive; ? = inconclusive; · = not tested or not shown; [ ] = another dose, or the depositor's remark. Unless noted, calls come from the whole dose curve; as a rule, active = well fitted curve in the direction sought with a large enough effect; inconclusive = small, poorly fitted or top-dose-only effect, or another doubt; inactive = no such curve, though single readings can be large; an effect the other way counts as inactive or inconclusive.

SMILES | FLuc inh | Fluorescein autfl | USP2a inh | TexasRed autofl | HEK293 cAMP ctrl | Rhodamine fluor | HADH2 inh | Tau fil binding | ERK AVP block
COc1cccc(Cn2c(=O)c(-c3ccc(F)cc3)nc3cnc(N(C)C)nc32)c1 | 1%[11.4 µM] | i | 28% | i | 11% | i | 2% | -2% | 1%
CN(C)C(=O)Nc1ccc(Cl)c(Cl)c1 | · | · | 3% | · | · | · | · | · | 16%
Cc1ccc(S(=O)(=O)c2c(N)n(NC(=O)c3ccco3)c3nc4ccccc4nc23)cc1 | 4% | i | 38%[activator] | i | -7% | i | 40%[activator] | -2% | 6%
O=c1c2cc(N3CCOCC3)ccc2[nH]c(=S)n1Cc1ccccn1 | 0% | i | 0% | i | 10% | i | -18% | 29% | -22%
COc1cccc(Cn2c(=O)c(-c3cccs3)nc3cncnc32)c1 | 1%[11.4 µM] | i | 228%[activator] | i | 16% | i | 1% | ? | ?
CCOC(=O)c1cc(-c2ccc(/C=N\n3cnnc3)o2)ccc1Cl | -34% | i | 6% | ? | -8% | i | -3% | -13% | -27%
CCCn1c(=N)c(C(=O)NCC2CCCO2)cc2c(=O)n3cccc(C)c3nc21 (stereo not drawn) | -1% | ? | -1% | i | -7% | i | 3.2µM* | -14% | -11%
CS(=O)(=O)N1CCN(C(=O)c2csc3ccccc23)CC1 | 4% | ? | 17% | i | 3% | i | 20µM* | 84% | 7%
COc1ccc(CCn2c(N)c(C#N)c3nc4ccccc4nc32)cc1OC | 1% | ? | 12% | i | 5% | i | ? | 9% | 4%

Only part of the results is shown. The share of hits here may be higher or lower than overall.
